# Compound activity: PubChem, Broad Institute
# DUX4 inh: DUX4-mediated transcription inhibition. 37,000 tested, 0.8% active. activity change, negative = inhibition, % (test concentration not listed). 293T-iDUX4 ZSCAN4-Gaussia luciferase reporter, 24 h; stronger effect = lower value. AID 1224904;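 active = -10% or lower and over 25 points stronger than a control reporter; inconclusive = -10% or lower with a smaller gap; inactive = above -10%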;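 note: 0% = median of neutral control wells and -100% = median of positive control wells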
# DUX4 inh difference: second read-out of DUX4 inh, no call of its own (marks repeat the call); Gaussia minus Italica difference, %; measured here: selective DUX4 reporter inhibition;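 worked out from the two reporters; negative = selective loss of the DUX4 reporter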
# DUX4 inh control: also measured in DUX4 inh; calls as there; activity change, negative = inhibition, %; measured here: Italica tet-on control reporter;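 0 = neutral control and -100 = positive control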
# * marks the source's active call; other numbers are inactive results; ? = inconclusive; / = not tested or not shown. Not all compounds are listed (hit frequency here may not be typical).
DUX4 inh	DUX4 inh difference	structure	DUX4 inh control
-2	-1	CCCNC(=O)C[C@H]1CC[C@H]2[C@H](COc3ccc(NC(=O)Nc4ccccc4F)cc3C(=O)N2C)O1	-0.3
7	-1	CC(=O)N1CC(=O)N2[C@H](CO)[C@@H](c3ccc(-c4ccc(C#N)cc4)cc3)[C@@H]2C1	8.1
-1	-4	C[C@H](CO)N1C[C@H](C)[C@@H](CN(C)S(C)(=O)=O)OCc2cnnn2CCCC1=O	3.3
0	-3	CO[C@@H]1CC[C@H]2CCN(C)C(=O)[C@H](C)[C@H](OC)CN(C)C(=O)c3cccc(C#N)c3OC[C@H]1O2	2.6
-3	-11	CC(C)NC(=O)N1CCCCN2[C@H](CO)[C@H](c3ccc(C#Cc4ccccc4)cc3)[C@@H]2C1	8.5
-3	1	C[C@H]1CN([C@@H](C)CO)C(=O)Cc2cc(NC(=O)CCN3CCOCC3)ccc2O[C@@H]1CN(C)C(=O)NC1CCCCC1	-4.2
0	13	COc1ccc(-c2ccc3c(c2)[C@@H]2[C@@H](CCN2C(=O)NC(C)C)[C@H](CO)N3C)cc1	-13
-2	-2	COc1ccc(S(=O)(=O)Nc2ccc3c(c2)C(=O)N([C@@H](C)CO)C[C@H](C)[C@@H](CN(C)C(=O)c2ccncc2)OCCCC[C@H](C)O3)cc1	-0.1
14	20	C[C@H](O)C#Cc1ccc([C@@H]2[C@@H](CO)N3CCCCN(CC4CC4)C[C@H]23)cc1	-5.9
-3	1	N#C[C@@H]1[C@@H](c2ccccc2)[C@@H](CO)N1C(=O)c1ccc2c(c1)OCO2	-3.3

# Reformatted with values under each structure: entries from further up.
# Screens in order: DUX4 inh, DUX4 inh difference, DUX4 inh control
> C[C@H](O)C#Cc1ccc([C@@H]2[C@@H](CO)N3CCCCN(CC4CC4)C[C@H]23)cc1
  14, 20, -5.9
> N#C[C@@H]1[C@@H](c2ccccc2)[C@@H](CO)N1C(=O)c1ccc2c(c1)OCO2
  -3, 1, -3.3

# Carrying on:
DUX4 inh	DUX4 inh difference	structure	DUX4 inh control
21	25	CN(C)C(=O)c1cccc(-c2ccc([C@@H]3[C@@H](CO)N4CCCCN(S(C)(=O)=O)C[C@H]34)cc2)c1	-3.1
0	-1	C[C@H](CO)N1C[C@H](C)[C@@H](CN(C)C(=O)Nc2ccc3c(c2)OCO3)Oc2ncc(C#CC3(O)CCCC3)cc2C1=O	1.3
3	6	CC(C)N(C[C@@H]1N[C@H](CO)[C@@H]1c1ccc(C2=CCCC2)cc1)C(=O)C1CC1	-2.5
9	9	C[C@H]1CN([C@@H](C)CO)C(=O)CCCn2nncc2CO[C@@H]1CN(C)C(=O)Nc1ccccc1C(F)(F)F	-0.2
1	2	COc1cccc(-c2ccc([C@@H]3[C@@H](C#N)N(C(=O)Cc4ccccc4)[C@H]3CO)cc2)c1	-0.8
31	4	COc1ccc2c3c([nH]c2c1)[C@H](CO)N(C(C)=O)CC31CCN(C(=O)Nc2c(C)noc2C)CC1	26
-1	-4	COc1ccc(CN2[C@H](CO)[C@H]3c4ccccc4N(C(=O)CC(F)(F)F)C[C@H]32)cc1	2.6
3	1	C[C@@H]1CN([C@@H](C)CO)C(=O)c2cccc(NC(=O)Nc3ccc(F)cc3)c2O[C@@H]1CN(C)CC1CCCCC1	1.9
4	5	COc1cccc(NC(=O)N2C[C@H](O)COC[C@H]3O[C@H](CC(=O)N(C)C)CC[C@@H]32)c1	-1.3
?	/	COc1ccc(C#Cc2ccc([C@@H]3[C@H]4CN(C(=O)Nc5ccccc5F)CCCCN4[C@H]3CO)cc2)cc1	/
4	2	CCC(=O)N1[C@@H]2Cn3c(ccc(C4=CCCCC4)c3=O)[C@H]1[C@@H](C(=O)N[C@H](C)c1ccccc1)[C@@H]2CO	2.1
4	5	COc1cccc(S(=O)(=O)N2C[C@@H](O)COC[C@H]3O[C@H](CC(=O)N4CCCCC4)CC[C@@H]32)c1	-1.5
2	-1	CCCNC(=O)[C@H]1N[C@H]2c3ccc(C4=CCCC4)c(=O)n3C[C@H]2[C@@H]1CO	3.6
2	6	O=C(NCC1CCCCC1)[C@H]1[C@H](CO)[C@H]2Cn3c(cccc3=O)[C@@H]1N2C(=O)c1ccncc1	-4.3
0	-4	Cc1ccccc1-c1ccc([C@H]2[C@H](CO)N3CCCCN(C(=O)c4cccnc4)C[C@@H]23)cc1	3.6
9	7	O=C(NCC1CC1)[C@@H]1[C@@H](CO)[C@@H]2Cn3c(ccc(-c4ccncc4)c3=O)[C@H]1N2Cc1nccs1	1.7
6	1	O=C(NC1CCCCC1)N1CC2(C1)[C@@H](c1ccccc1)[C@@H](CO)N2CC1CC1	4.9
9	0	CN(C)C(=O)c1cccc(-c2ccc(C3[C@@H]4CN(C(=O)Cc5ccccc5)C[C@H]3N4)cc2)c1 (stereo not given in full)	8.7
4	2	C[C@H]1CN([C@@H](C)CO)C(=O)CCCn2cc(nn2)CO[C@H]1CN(C)S(=O)(=O)c1ccc(-n2cccn2)cc1	2.0
?	/	CCCC#Cc1ccc([C@H]2[C@H](CO)N3C(=O)CN(C(=O)Nc4cc(F)ccc4F)C[C@@H]23)cc1	/
5	0	COc1ccc(-c2cn(CC[C@@H]3CC[C@@H](NC(=O)c4cnccn4)[C@H](CO)O3)nn2)cc1	5.0
2	-1	CNC[C@@H]1OCCCC[C@H](C)Oc2ccc(NC(=O)Nc3cccc4ccccc34)cc2C(=O)N([C@H](C)CO)C[C@@H]1C	2.5
1	-3	C/C=C/c1ccc([C@@H]2[C@H](CO)N(C(=O)CC)[C@H]2CNC(=O)CC)cc1	3.9
-3	-1	CO[C@H]1CN(C)C(=O)c2ccc(NC(=O)Nc3cc(F)ccc3F)cc2OC[C@H](C)N(C(=O)c2ccccn2)C[C@@H]1C	-2.4
-46*	-25*	CCS(=O)(=O)N1CC2(CN(Cc3ccccc3F)[C@@H](CO)c3[nH]c4cc(OC)ccc4c32)C1	-21*
7	6	O=C(c1ccccn1)N1CC2(C1)[C@@H](c1ccccc1)[C@@H](CO)N2C(=O)C1CC1	0.7
-1	-8	O=C(C[C@H]1C[C@@H]2c3cc(NC(=O)Nc4ccc(C(F)(F)F)cc4)ccc3O[C@@H]2[C@H](CO)O1)NCc1ccc(Cl)cc1	6.1
-4	13	N#C[C@H]1[C@@H](c2ccccc2/C=C/c2ccccc2)[C@@H](CO)N1S(=O)(=O)c1cccc(F)c1	-16
3	-1	O=C(c1ccccn1)N1C[C@H]2[C@@H](c3ccccc31)[C@H](CO)N2C(=O)Nc1ccccc1Cl	3.6
-6	-8	CN(C)C(=O)C[C@@H]1C=C[C@H](NC(=O)Nc2cccc(F)c2)[C@@H](CO)O1	1.6
-7	-1	COc1ccc2c3c(n(C)c2c1)[C@H](CO)N(C(=O)Nc1ccc(F)cc1)CC31CN(C(=O)NC2CCCC2)C1	-5.9
15	4	COCC(=O)N1CCC2(CC1)CN(C(=O)COC)[C@@H](CO)c1c2c2ccc(OC)cc2n1C	11
?	/	C[C@H](CO)N1C[C@H](C)[C@H](CN(C)C(=O)Nc2ccc(-c3ccccc3)cc2)OCc2ccccc2-c2c(n(C)c3ccccc23)C1=O	/
-2	0	CCCN(C)C[C@H]1OCCCC[C@@H](C)Oc2ccc(NC(=O)c3ccncc3)cc2C(=O)N([C@@H](C)CO)C[C@H]1C	-1.3
0	1	C[C@H](CO)N1C[C@H](C)[C@H](CN(C)S(C)(=O)=O)Oc2ccc(NC(=O)Cc3ccccc3)cc2C1=O	-1.2
16	4	COCC(=O)N1[C@H](CO)[C@@H](c2ccccc2C2=CCCC2)[C@@H]1C#N	12
-7	-6	CN1C(=O)c2cc(NS(=O)(=O)c3cccc(F)c3)ccc2OC[C@H]2O[C@@H](CC(=O)NCCN3CCCCC3)CC[C@@H]21	-1.1
-1	-2	CCCN(C)C[C@H]1Oc2cc(Br)ccc2S(=O)(=O)N([C@H](C)CO)C[C@H]1C	0.9
-6	12	COc1cccc(-c2ccccc2[C@@H]2[C@H](C#N)N(C(=O)Cc3ccccc3)[C@H]2CO)c1	-17
-3	-3	COCC(=O)N(C)C[C@H]1[C@H](c2ccccc2)[C@H](CO)N1C(=O)NC(C)C	-0.4
-1	0	CNC[C@@H]1OCCCC[C@@H](C)Oc2ccc(NC(=O)Nc3ccc(OC)cc3)cc2C(=O)N([C@H](C)CO)C[C@H]1C	-1.0
-4	-1	O=C(C[C@@H]1CC[C@@H]2[C@H](COC[C@@H](O)CN2C(=O)Nc2cccc(F)c2)O1)NCc1ccccc1F	-2.6
-2	-2	CO[C@@H]1CN(C)C(=O)c2ccc(NC(=O)C3CCOCC3)cc2OC[C@H](C)N(C)C[C@H]1C	0.0
?	/	C[C@H](CO)N1C[C@H](C)[C@H](CN(C)S(=O)(=O)c2ccccc2F)OCc2ccccc2-c2ccccc2C1=O	/
-2	-1	CCS(=O)(=O)N1[C@H](CO)[C@@H](c2ccc(C#Cc3ccccc3F)cc2)[C@@H]1C#N	-1.0
14	14	CC1C=NC(S(=O)(=O)N2CC[C@@H]3[C@H]2c2cc(-c4ccccc4F)ccc2N(C)[C@H]3CO)=N1 (stereo not given in full)	-0.3
15	4	CC(C)[C@H](C)NC(=O)N(C)C[C@H]1OCc2ccccc2-c2ccccc2C(=O)N([C@@H](C)CO)C[C@H]1C	11
0	-2	CC=Cc1ccc2n(c1=O)C[C@H]1[C@H](CO)[C@@H](C(=O)N3CCC(Cc4ccccc4)CC3)N(C)[C@@H]21 (mixture of isomers)	1.9
2	-3	COc1ccccc1-c1ccc([C@@H]2[C@@H](CO)N3CCCCN(C(=O)c4cccnc4)C[C@@H]23)cc1	4.9
2	-5	CCS(=O)(=O)N1CC2(C1)[C@@H](c1ccccc1)[C@@H](CO)N2C(=O)c1ccccc1	7.2

# One compound at a time (already shown). Order of screens: DUX4 inh | DUX4 inh difference | DUX4 inh control
# CC(C)[C@H](C)NC(=O)N(C)C[C@H]1OCc2ccccc2-c2ccccc2C(=O)N([C@@H](C)CO)C[C@H]1C across the screens: 15 | 4 | 11
# CCS(=O)(=O)N1CC2(C1)[C@@H](c1ccccc1)[C@@H](CO)N2C(=O)c1ccccc1 across the screens: 2 | -5 | 7.2
# O=C(C[C@@H]1CC[C@@H]2[C@H](COC[C@@H](O)CN2C(=O)Nc2cccc(F)c2)O1)NCc1ccccc1F across the screens: -4 | -1 | -2.6
# CC1C=NC(S(=O)(=O)N2CC[C@@H]3[C@H]2c2cc(-c4ccccc4F)ccc2N(C)[C@H]3CO)=N1 (stereo not given in full) across the screens: 14 | 14 | -0.3
# CNC[C@@H]1OCCCC[C@@H](C)Oc2ccc(NC(=O)Nc3ccc(OC)cc3)cc2C(=O)N([C@H](C)CO)C[C@H]1C across the screens: -1 | 0 | -1.0

# (further entries)
DUX4 inh	DUX4 inh difference	structure	DUX4 inh control
-5	-3	COCC(=O)N1C[C@H](C)[C@@H](OC)CN(C)C(=O)c2cc(NC(=O)Nc3ccccc3)ccc2OC[C@H]1C	-1.5
-30*	-28*	COc1cccc(S(=O)(=O)N2CCCCN3[C@@H](CO)[C@@H](c4ccc(C#CCC(C)C)cc4)[C@@H]3C2)c1	-1.9*
4	6	O=C1N[C@H](c2ccccc2)COCc2cn(nn2)CC[C@H]1Cc1ccc(C(F)(F)F)cc1	-1.8
3	-1	C[C@@H]1CCCCO[C@H](CN(C)C(=O)NC2CCCCC2)[C@H](C)CN([C@H](C)CO)C(=O)c2cc(NC(=O)Nc3cccc4ccccc34)ccc2O1	3.4
-4	-7	O=C(CC1CC1)N1CC(=O)N2[C@@H](CO)[C@@H](c3ccc(C#Cc4ccccc4)cc3)[C@@H]2C1	2.9
-3	-1	N#C[C@@H]1[C@H](c2ccc(-c3ccc(F)cc3)cc2)[C@H](CO)N1C(=O)Cc1ccccc1	-1.9
-5	4	CCS(=O)(=O)N1CCCCN2[C@H](CO)[C@@H](c3ccc(-c4ccccc4F)cc3)[C@H]2C1	-8.9
4	5	CO[C@@H]1CN(C)C(=O)c2ccc(NC(=O)C3CCCC3)cc2OC[C@H](C)N(S(C)(=O)=O)C[C@H]1C	-0.8
10	5	O=C(NCC1CC1)[C@H]1[C@H](CO)[C@H]2Cn3c(ccc(-c4cccc(F)c4)c3=O)[C@H]2N1CC1CCOCC1	4.5
7	7	CCCNC(=O)N1C[C@H](O)COC[C@H]2O[C@@H](CC(=O)NCCCN3CCOCC3)CC[C@@H]21	0.1

# Arranged by the number under DUX4 inh (highest first): 3 of the compounds above
structure	DUX4 inh	DUX4 inh difference	DUX4 inh control
O=C(NCC1CC1)[C@H]1[C@H](CO)[C@H]2Cn3c(ccc(-c4cccc(F)c4)c3=O)[C@H]2N1CC1CCOCC1	10	5	4.5
CCCNC(=O)N1C[C@H](O)COC[C@H]2O[C@@H](CC(=O)NCCCN3CCOCC3)CC[C@@H]21	7	7	0.1
C[C@@H]1CCCCO[C@H](CN(C)C(=O)NC2CCCCC2)[C@H](C)CN([C@H](C)CO)C(=O)c2cc(NC(=O)Nc3cccc4ccccc34)ccc2O1	3	-1	3.4

# Going on with the list.
DUX4 inh	DUX4 inh difference	structure	DUX4 inh control
?	/	O=C(Nc1cc(F)ccc1F)N[C@@H]1CC[C@H](CCn2cc(C3CCCCC3)nn2)O[C@@H]1CO	/
10	2	CC(C)(O)C#Cc1ccc([C@H]2[C@@H](CO)N3CCCCN(S(C)(=O)=O)C[C@@H]23)cc1	7.1
9	-3	COCC(=O)N1CCC2(CC1)CN(Cc1ccccn1)[C@@H](CO)c1[nH]c3cc(OC)ccc3c12	12
6	6	C[C@H]1CN([C@@H](C)CO)C(=O)c2ccccc2-c2ccccc2CO[C@@H]1CN(C)C(=O)c1ccc(F)cc1	0.7
2	-4	CO[C@@H](CN(C)S(=O)(=O)c1ccccc1)[C@@H](C)CN(Cc1ccccc1Cl)[C@H](C)CO	6.0
